Compound activity (PubChem)
total CFTR – total CFTR protein upregulators, primary screen, cell-based, HeLa F508del-CFTR, immunofluorescence, viability (AID 1224863); Cystic fibrosis transmembrane conductance regulator (Homo sapiens); HeLa F508del-CFTR, immunofluorescence total CFTR, 24 h; by the record results were divided by relative cell number; some inactives read as strong as hits; 10,000 tested, 0.1% active; calls, or highest fold increase where a dose series was run; in the data nearly all actives have a first-pass fold increase above 1.5; a few of its hits are not listed in these tables;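 further: total CFTR protein by anti-CFTR immunofluorescence in fixed cells; first pass at 25 µM or 10 µg/mL by library and series up to twice that; 1 = untreated cells; first-pass hits also needed half or more of the cells alive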
total CFTR fold 25 µM – second read-out of total CFTR, no call of its own (marks repeat the call); fold increase; measured here: primary screen single dose 25 uM; library dosed in µM
total CFTR fold 10 ug/mL – also measured in total CFTR; calls as there; fold increase; measured here: primary screen 10 ug/mL
total CFTR viability 25 µM – further read-out of total CFTR, marked with its call; viability, %; measured here: primary viability 25 uM; library dosed in µM;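 0% = killed and 100% = untreated cells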
total CFTR viability 10 ug/mL – further read-out of total CFTR, marked with its call; viability, %; measured here: primary viability 10 ug/mL;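 0% = killed and 100% = untreated cells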
* marks the source's active call; other numbers are inactive results; i = inactive; . = no result given; & = joins results of further samples.

SMILES	total CFTR	total CFTR fold 10 ug/mL	total CFTR viability 10 ug/mL	others
CN(C)c1cc(CNc2ccc(C#N)cn2)ccn1	i	0.97	95
CCOc1cc(CC#N)cc(Cl)c1OCC(F)(F)F	i	1	98
CCc1ccc(C(=O)CSc2nnc(Cc3cccs3)n2C2CC2)s1	i	1	72
Nc1ccc(S(=O)(=O)Nc2ccc(Cl)nn2)cc1	i	.	.	total CFTR fold 25 µM=1;total CFTR viability 25 µM=98
COc1ccc(Cl)cc1CSc1nnc(-c2ccoc2C)o1	i	0.95	80
O=C1NC2(CCOc3ccccc32)C(=O)N1Cc1cc(Cl)c2c(c1)OCCO2 (centres undefined)	i	0.87	87
CCOC(=O)c1c(NC(=O)CNC(C)(C)C)sc(C(=O)NC)c1C	i	1	86
N#Cc1cc(N)ccc1OCC(F)(F)F	i	1.1	84
S=c1[nH]nc(N2CCOCC2)n1C1CC1	i	1	93
Cc1cc(C)cc(Nc2nc(-c3cccnc3)nc3ccccc23)c1	i	0.97	94
O=C1NC2(CCc3ccccc32)C(=O)N1Cc1cccc(F)c1F (centres undefined)	i	1	104
NS(=O)(=O)c1ccc2c(c1)CCN2S(=O)(=O)c1cccc(OC(F)(F)F)c1	i	0.91	84
CC(C)(O)c1ccccc1CC[C@@H](SC1(CC(=O)O)CC1)c1cccc(/C=C/c2ccc3ccc(Cl)cc3n2)c1	i	.	.	total CFTR fold 25 µM=1;total CFTR viability 25 µM=103
CCN(CC)CCc1nc(-c2ccccc2)no1	i	.	.	total CFTR fold 25 µM=0.99;total CFTR viability 25 µM=105
N#Cc1ccc(S(=O)(=O)N(Cc2ccc(F)cc2)C2CC2)cc1	i	1.1	97
Nc1nnc(C(F)F)s1	i	0.95	100
CN(Cc1ccc2c(c1)OCCO2)S(=O)(=O)c1ccc(Br)cc1Cl	i	0.94	80
Cc1ccc(/C=C(/C#N)c2nnc(N3CCOCC3)n2-c2ccccc2)o1	i	0.98	92
Cc1noc(N)n1	i	1.2	108
C=CCN(CC=C)CN1C(=O)NC(Cc2ccccc2)(Cc2ccccc2)C1=O	i	1	88
CC1CCC2(CC1)NC(=O)N(CC(=O)NCC1CCCCC1)C2=O (centres undefined)	i	0.93	86
CCOC(=O)c1sc(NC(=O)N2CCN(CC3CCCO3)CC2)c(C(=O)OCC)c1C (centres undefined)	i	0.94	93
CC(C)N(CC1CCCN(Cn2c(=O)oc3ccccc32)C1)C(=O)OC(C)(C)C (centres undefined)	i	0.89	95
O=C1NC(c2ccccc2)(c2ccccc2)C(=O)N1CN1CCc2sccc2C1c1cccs1 (centres undefined)	i	0.98	94
CCC(C)Nc1nnc(SC2CCCCNC2=O)s1 (centres undefined)	i	1.1	106
O=S1(=O)N=CNc2ccccc21	i	1	83
CCc1ccc2c(COC(=O)C34CCC(=O)N3c3ccccc3C(=O)N4C)cc(=O)oc2c1 (centres undefined)	i	0.91	89
Cn1c(COc2ccccc2Cl)nn(CN(C2CC2)C2CCc3ccccc32)c1=S (centres undefined)	i	1.1	94
O=S(=O)(Nc1cccc(OCC2CCCO2)c1)c1cccc(OC(F)(F)F)c1 (centres undefined)	i	0.86	83
Cc1nc(C2(NC(=O)CC3CC4CCC3C4)CCCCC2)no1 (centres undefined)	i	0.98	81
CCC1NC(=O)c2cc(S(N)(=O)=O)c(Cl)cc2N1 (centres undefined)	i	.	.	total CFTR fold 25 µM=0.61;total CFTR viability 25 µM=31
CN(Cc1ccccc1[N+](=O)[O-])S(=O)(=O)N1CCCCCC1	i	1	93
COC(=O)c1ccc(NC(=O)Cc2ccsc2)s1	i	0.84	84
C=CCn1c(-c2ccc(Cl)cc2)nn(CN2CCc3sccc3C2)c1=S	i	0.97	117
Oc1c(C(O)(c2nc3ccccc3s2)C(F)(F)F)cc2c3c1CCCN3CCC2 (centres undefined)	i	0.95	80
O=C1C(=O)c2ccccc2C(O)=C1C1CCC(c2ccc(Cl)cc2)CC1 (centres undefined)	i	.	.	total CFTR fold 25 µM=0.86&0.81;total CFTR viability 25 µM=84&80
CC1CCc2c(sc3ncnc(N4CCC4)c23)C1 (centres undefined)	i	0.96	104
CN1C(=O)c2ccc(NC(=O)C3(C)CC3(Cl)Cl)cc2C1=O (centres undefined)	i	1.1	93
Cn1c(SCCC23CC4CC(CC(C4)C2)C3)nnc1-c1cccnc1	i	0.91	90
COc1cc(C(=O)OCc2cc3c(cc2Br)OCO3)cc2c1OCCO2	i	1.1	84

5 records drawn at random from those above, as already listed:
SMILES	total CFTR	total CFTR fold 10 ug/mL	total CFTR viability 10 ug/mL	others
Cn1c(SCCC23CC4CC(CC(C4)C2)C3)nnc1-c1cccnc1	i	0.91	90
CC1CCc2c(sc3ncnc(N4CCC4)c23)C1 (centres undefined)	i	0.96	104
O=C1C(=O)c2ccccc2C(O)=C1C1CCC(c2ccc(Cl)cc2)CC1 (centres undefined)	i	.	.	total CFTR fold 25 µM=0.86&0.81;total CFTR viability 25 µM=84&80
Oc1c(C(O)(c2nc3ccccc3s2)C(F)(F)F)cc2c3c1CCCN3CCC2 (centres undefined)	i	0.95	80
COc1cc(C(=O)OCc2cc3c(cc2Br)OCO3)cc2c1OCCO2	i	1.1	84

Other structures.
SMILES	total CFTR	total CFTR fold 10 ug/mL	total CFTR viability 10 ug/mL	others
Cc1ccccc1OCCn1c(=O)c(C#N)c2n(c1=O)CCC2	i	0.95	87
CS(=O)(=O)NC1CCN(c2ccc(C(F)(F)F)cc2[N+](=O)[O-])CC1	i	0.91	94
C=CCn1c(SCc2cc(=O)oc3cc(C)c(Cl)cc23)nnc1C1CCCCC1	i	0.99	89
CC1(C(=O)NC2CCCC2)CC1(Cl)Cl (centres undefined)	i	0.93	91
COc1ccc2c(COC(=O)c3ccc4c(c3)S(=O)(=O)N=C3CCCCCN34)cc(=O)oc2c1	i	1	83
C[C@]1(Cn2ccnn2)C(C(=O)O)N2C(=O)CC2S1(=O)=O (some centres undefined)	i	.	.	total CFTR fold 25 µM=0.91;total CFTR viability 25 µM=94
O=c1[nH]c(=O)n(C2CCCO2)cc1F (centres undefined)	i	.	.	total CFTR fold 25 µM=1.1;total CFTR viability 25 µM=109
CC(NC(=O)CSc1nnnn1C1CCCC1)c1ccco1 (centres undefined)	i	1	98
CNc1nnc(SC(C)C(=O)C23CC4CC(CC(C4)C2)C3)s1 (centres undefined)	i	0.94	95
COc1ccc(-c2nnc(SCc3ccc(Br)cc3)o2)cc1OC	i	1.1	83

Among those listed so far, 6 contain a CF3 group:
SMILES	total CFTR	total CFTR fold 10 ug/mL	total CFTR viability 10 ug/mL	others
CCOc1cc(CC#N)cc(Cl)c1OCC(F)(F)F	i	1	98
N#Cc1cc(N)ccc1OCC(F)(F)F	i	1.1	84
NS(=O)(=O)c1ccc2c(c1)CCN2S(=O)(=O)c1cccc(OC(F)(F)F)c1	i	0.91	84
O=S(=O)(Nc1cccc(OCC2CCCO2)c1)c1cccc(OC(F)(F)F)c1 (centres undefined)	i	0.86	83
Oc1c(C(O)(c2nc3ccccc3s2)C(F)(F)F)cc2c3c1CCCN3CCC2 (centres undefined)	i	0.95	80
CS(=O)(=O)NC1CCN(c2ccc(C(F)(F)F)cc2[N+](=O)[O-])CC1	i	0.91	94

Returning to the listing with the two entries that preceded the break.
SMILES	total CFTR	total CFTR fold 10 ug/mL	total CFTR viability 10 ug/mL	others
CNc1nnc(SC(C)C(=O)C23CC4CC(CC(C4)C2)C3)s1 (centres undefined)	i	0.94	95
COc1ccc(-c2nnc(SCc3ccc(Br)cc3)o2)cc1OC	i	1.1	83
Cc1ccc(C(C)(C)C)cc1S(=O)(=O)NC1CCCCCC1	i	1.2	87
COc1ccc(S(=O)(=O)N2CCCC(CN(C(=O)OC(C)(C)C)C(C)C)C2)cc1OC (centres undefined)	i	0.89	81
CN(C)C(CNC(=O)/C=C/c1cccs1)c1ccsc1 (centres undefined)	i	0.93	86
CN[C@@H]1[C@@H](O[C@H]2O[C@H](CO)[C@@H](N)[C@H](O)[C@H]2O)O[C@H]2C[C@@H](N)[C@H](O[C@H]3[C@H](O)[C@@H](O)[C@H](N)C[C@@H]3N)O[C@@H]2[C@@H]1O	i	.	.	total CFTR fold 25 µM=1.2;total CFTR viability 25 µM=90
O=[N+]([O-])c1ccc(NC2CC2)cc1	i	0.9	91
Cn1c(N)c(C(c2ccc(F)cc2)c2c(N)n(C)c(=O)[nH]c2=O)c(=O)[nH]c1=O	i	0.91	95
CN1C(=O)CC(c2ccccc2)C1=O (centres undefined)	i	.	.	total CFTR fold 25 µM=1.1;total CFTR viability 25 µM=82
COc1cc2c(cc1O)CC[C@@H]1[C@@H]2CC[C@]2(C)[C@@H](O)CC[C@@H]12	i	.	.	total CFTR fold 25 µM=0.62;total CFTR viability 25 µM=80
Cc1nnc(CSc2ncnc3c2oc2ccccc23)o1	i	1.2	104
COc1ccc(-c2nnn(-c3ncnc4sc5c(c34)CCC5)n2)cc1OC	i	1.1	103
NC(=O)c1ncn([C@@H]2O[C@H](CO)[C@@H](O)[C@H]2O)c1N	i	.	.	total CFTR fold 25 µM=1.1;total CFTR viability 25 µM=89
CC(=O)c1cc(CCC(=O)NC(C)C(C)C)oc1C (centres undefined)	i	0.97	85
Cc1cc(C)c(C)c(S(=O)(=O)NC(C)c2ccc3c(c2)OCO3)c1C (centres undefined)	i	1	66
O=C(OCc1cc(=O)oc2ccc3ccccc3c12)c1ccc([N+](=O)[O-])s1	i	1.1	92
COC(=O)C1=C(C)NC(=S)NC1c1ccccc1OC(F)(F)F (centres undefined)	i	1.1	77
CC(C)(C)OC(=O)N1CCN(Cn2nnc(-c3ccccc3)n2)CC1	i	1.1	102
CC1CCc2c(sc3ncnc(OCCOc4ccc(Cl)cc4Cl)c23)C1 (centres undefined)	i	0.98	109
Cc1cc(COC(=O)c2ccc3c(=O)n4c(nc3c2)CCC4)on1	i	1	89
O=C(c1cc2c(s1)CCCC2)N1CCN(C2CCS(=O)(=O)C2)CC1 (centres undefined)	i	0.94	106
FC(F)(F)Oc1ccc(-n2nnnc2SCc2cn3cc(Cl)ccc3n2)cc1	i	0.9	81
C=CCN1C(=O)C(=O)N(Cc2ccccc2Cl)C1=O	i	0.86	96
CC1NC(=S)N(c2ccc3c(c2)OCCO3)C1=O (centres undefined)	i	1	89
Cc1cc(C)cc(-c2nnc(SCCC#N)o2)c1	i	1	100
Cn1c(=O)c2ccccc2n2c(SCCCc3ccccc3)nnc12	i	0.94	81
Cc1noc(C)c1S(=O)(=O)N1CCN(C(C)c2nc(C3CC3)no2)CC1 (centres undefined)	i	0.94	88
Cc1nc(CCNC(=O)C2CC2)cs1	i	0.99	91
CCN1CCC(NCCCCCc2[nH]nc(N)c2C#N)CC1	i	1.1	104
CC(C)(Oc1ccc(Cl)cc1)C(=O)N1CCN(S(=O)(=O)N2CCCCCC2)CC1	i	1	97
O=C(O)c1cc2cccc(Br)c2o1	i	0.99	88
COC(=O)c1c(C)[nH]c(C(=O)CN2CCCC(C)C2)c1C (centres undefined)	i	1	87

Filtered by structure: the compounds so far containing a COOH group
SMILES	total CFTR	total CFTR fold 10 ug/mL	total CFTR viability 10 ug/mL	others
CC(C)(O)c1ccccc1CC[C@@H](SC1(CC(=O)O)CC1)c1cccc(/C=C/c2ccc3ccc(Cl)cc3n2)c1	i	.	.	total CFTR fold 25 µM=1;total CFTR viability 25 µM=103
C[C@]1(Cn2ccnn2)C(C(=O)O)N2C(=O)CC2S1(=O)=O (some centres undefined)	i	.	.	total CFTR fold 25 µM=0.91;total CFTR viability 25 µM=94
O=C(O)c1cc2cccc(Br)c2o1	i	0.99	88

Additional structures:
SMILES	total CFTR	total CFTR fold 10 ug/mL	total CFTR viability 10 ug/mL	others
COC(=O)C1=C(C)NC(C)=C(C(=O)OCCCN2CCC(c3ccccc3)(c3ccccc3)CC2)C1c1cccc([N+](=O)[O-])c1 (centres undefined)	i	.	.	total CFTR fold 25 µM=0.56;total CFTR viability 25 µM=11
COc1ccc2nc(/C=C/c3cc(OC)c(OC)cc3OC)sc2c1	i	0.83	81
CCCCCCOc1ccc(C2NC(=S)NC(C)=C2C(=O)OCCOC)cc1OC (centres undefined)	i	1	89
CN(C)c1nc(N)nc(CSCc2nc(-c3cccs3)no2)n1	i	0.98	97
Cc1noc(C)c1COC(=O)c1oc2ccccc2c1CSC1CCCCC1	i	1	84
COCC(=O)N1CCN(S(=O)(=O)c2cccs2)CC1	i	1.1	106
Cc1ccoc1C(=O)N1CCOCC1	i	0.96	96
CC1Cc2cc([N+](=O)[O-])ccc2N1Cn1nc(-c2ccncc2)n(C)c1=S (centres undefined)	i	1.1	96
O=C(c1ccsc1)N1CCCC(C(F)(F)F)C1 (centres undefined)	i	0.97	79
O=C(c1ccc2c(c1)S(=O)(=O)N=C1CCCCCN12)N1CCCCC1	i	1	99
CCC1CCC2(CC1)NC(=O)N(CN1CCOCC1)C2=O (centres undefined)	i	0.98	88
Cn1c(=O)c2c(ncn2CCC(=O)NCC(C)(C)N2CCCCC2)n(C)c1=O	i	1.1	101
CC(C1CC1)N(C)Cc1nc2sc3c(c2c(=O)[nH]1)CCC3 (centres undefined)	i	1	106
O=[N+]([O-])c1cc2c(cc1S(=O)(=O)NCCCN1CCOCC1)OCCCO2	i	1	97
COC(=O)c1ccoc1COC(=O)c1cc2c(cc1[N+](=O)[O-])OCO2	1.6	1.7	106
CC1CN(S(=O)(=O)Cc2ccc(C#N)cc2)CC(C)O1 (centres undefined)	i	0.99	76
CCCn1nc(C(=O)NC(C)(C)C(=O)OC)ccc1=O	i	1.2	100

These rows are one share of the data (hit frequency here may not be typical).
